Source: PubChem BioAssay
Ran FRET = RanGTP/importin-beta interaction disruptors – biochemical, CFP-Ran/YFP-importin-beta FRET, RCC1, cell-free, primary screen (AID 434961); CFP-Ran/YFP-importin-beta FRET, cell-free; active compounds read high; inhibition, %; 0.2% of 7,700 active;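 active = more than half of the replicate wells above 15% inhibition; inconclusive = exactly half above it; inactive = fewer than half above it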;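 also: 0% = DMSO wells and 100% inhibition = RanGDP control wells on each plate; stock of unstated strength diluted about 400-fold; mean of two wells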
The depositor's hits bear a star; u = inconclusive.

SMILES | Ran FRET
COc1ccccc1CN(C)C[C@H]1OCc2cn(nn2)CCCC(=O)N([C@H](C)CO)C[C@@H]1C | 4.2
COc1ccc(CN(C)C[C@@H]2Oc3ccc(NC(=O)CCN4CCOCC4)cc3C(=O)N([C@@H](C)CO)C[C@@H]2C)cc1 | 4.9
COc1ccc(S(=O)(=O)N(C)C[C@@H]2Oc3ccc(NC(=O)Nc4ccc(C(F)(F)F)cc4)cc3CC(=O)N([C@H](C)CO)C[C@H]2C)cc1 | -3.6
CC(C)NC(=O)Nc1cccc2c1O[C@H](CN(C)Cc1ccc(Cl)c(Cl)c1)[C@@H](C)CN([C@@H](C)CO)C2=O | -5.4
C[C@@H]1CCCCO[C@H](CN(C)C(=O)c2ccncc2)[C@@H](C)CN([C@H](C)CO)C(=O)c2cc(NC(=O)Cc3ccccc3)ccc2O1 | -1.1
CNC[C@H]1Oc2ccc(NC(=O)C3CC3)cc2CC(=O)N([C@@H](C)CO)C[C@H]1C | 0.5
Cc1noc(C)c1NC(=O)N(C)C[C@@H]1Oc2ccc(NC(=O)Cn3cnnn3)cc2C(=O)N([C@@H](C)CO)C[C@@H]1C | -1.2
C[C@H]1CN([C@@H](C)CO)C(=O)c2cc(NC(=O)C3CC3)ccc2O[C@H]1CN(C)Cc1ccc(C(=O)O)cc1 | 2.9
C[C@@H]1CN([C@H](C)CO)C(=O)c2cc(NC(=O)Nc3ccc4c(c3)OCO4)ccc2O[C@H]1CN(C)Cc1ccc(C(F)(F)F)cc1 | 2.2
C[C@H](CO)N1C[C@H](C)[C@@H](CN(C)C(=O)Nc2ccc3c(c2)OCO3)Oc2ccc(NC(=O)Cc3ccccc3)cc2CC1=O | -2.6
C[C@@H]1CCCCO[C@@H](CN(C)C(=O)Cc2ccccc2)[C@@H](C)CN([C@H](C)CO)C(=O)c2cc(NC(=O)Nc3ccccc3)ccc2O1 | -0.4
C[C@H]1CN([C@@H](C)CO)C(=O)Cc2cc(NS(=O)(=O)c3ccc(Cl)cc3)ccc2O[C@H]1CN(C)C(=O)NC1CCCCC1 | -4.4
CNC[C@@H]1Oc2c(N)cccc2C(=O)N([C@H](C)CO)C[C@@H]1C | -1.1
C[C@@H]1CN([C@@H](C)CO)C(=O)c2cc(NS(C)(=O)=O)ccc2O[C@@H](C)CCCCO[C@@H]1CN(C)C(=O)CCC(F)(F)F | 1.4
C[C@H]1CN([C@@H](C)CO)C(=O)Cc2cc(N(C)C)ccc2O[C@H]1CN(C)S(=O)(=O)c1cccs1 | 0.6

A different layout for some results above.
> COc1ccc(S(=O)(=O)N(C)C[C@@H]2Oc3ccc(NC(=O)Nc4ccc(C(F)(F)F)cc4)cc3CC(=O)N([C@H](C)CO)C[C@H]2C)cc1
  Ran FRET = -3.6
> CC(C)NC(=O)Nc1cccc2c1O[C@H](CN(C)Cc1ccc(Cl)c(Cl)c1)[C@@H](C)CN([C@@H](C)CO)C2=O
  Ran FRET = -5.4

Going on with the list.
SMILES | Ran FRET
C[C@H](CO)N1C[C@H](C)[C@@H](CN(C)C(=O)Nc2ccccc2)Oc2ccc(NC(=O)Cc3cn(C)c4ccccc34)cc2C1=O | -3.2
C[C@H]1CN([C@@H](C)CO)C(=O)CCCn2cc(nn2)CO[C@@H]1CN(C)C(=O)Cc1ccccc1 | 9.0
Cc1noc(C)c1NC(=O)Nc1ccc2c(c1)CC(=O)N([C@@H](C)CO)C[C@H](C)[C@H](CN(C)C(=O)NC(C)C)O2 | 0.6
C[C@H](CO)N1C[C@H](C)[C@H](CN(C)S(=O)(=O)c2ccccc2)OCCCC[C@H](C)Oc2ccc(NC(=O)Nc3ccccc3)cc2C1=O | 0.7
Cc1noc(C)c1NC(=O)N(C)C[C@H]1Oc2ccc(N(C)C)cc2CC(=O)N([C@@H](C)CO)C[C@@H]1C | -7.8
CC(C)NC(=O)Nc1ccc2c(c1)C(=O)N([C@H](C)CO)C[C@@H](C)[C@H](CN(C)C(=O)Nc1ccccc1)OCCCC[C@@H](C)O2 | 1.6
Cc1noc(C)c1NC(=O)Nc1ccc2c(c1)CC(=O)N([C@H](C)CO)C[C@@H](C)[C@H](CN(C)S(=O)(=O)c1cn(C)cn1)O2 | 6.5
C[C@H]1CN([C@@H](C)CO)C(=O)c2cccc(NC(=O)Nc3cccc4ccccc34)c2O[C@H]1CN(C)C(=O)NC1CCCCC1 | -1.5
Cc1noc(C)c1NC(=O)N(C)C[C@H]1OCCCC[C@H](C)Oc2ccc(NS(=O)(=O)c3cn(C)cn3)cc2C(=O)N([C@@H](C)CO)C[C@H]1C | -0.1
CC(C)NC(=O)N(C)C[C@H]1OCCCC[C@@H](C)Oc2ccc(NS(=O)(=O)c3ccccc3)cc2C(=O)N([C@H](C)CO)C[C@H]1C | 4.2
C[C@@H]1CN([C@H](C)CO)C(=O)c2cc(NS(C)(=O)=O)ccc2O[C@H]1CN(C)C(=O)Nc1ccc(F)cc1 | -2.3
C[C@@H]1CN([C@@H](C)CO)C(=O)Cc2cc(NC(=O)NC3CCCCC3)ccc2O[C@@H]1CN(C)C(=O)NC1CCCCC1 | 1.6
Cc1noc(C)c1NC(=O)Nc1cccc2c1O[C@@H](CN(C)S(=O)(=O)c1cn(C)cn1)[C@@H](C)CN([C@@H](C)CO)C2=O | -2.8
C[C@H]1CN([C@@H](C)CO)C(=O)c2cccc(NC(=O)C3CCOCC3)c2O[C@@H]1CN(C)Cc1ccccc1 | u
C[C@H](CO)N1C[C@H](C)[C@H](CN(C)S(=O)(=O)c2cn(C)cn2)Oc2ccc(NC(=O)CCN3CCOCC3)cc2CC1=O | 2.1

The list continues.
SMILES | Ran FRET
COc1ccc(S(=O)(=O)N(C)C[C@@H]2Oc3ccc(NC(=O)Nc4cccc5ccccc45)cc3CC(=O)N([C@H](C)CO)C[C@H]2C)cc1 | -1.5
Cc1noc(C)c1NC(=O)Nc1ccc2c(c1)CC(=O)N([C@H](C)CO)C[C@H](C)[C@@H](CN(C)C(=O)NC(C)C)O2 | -0.6
CC(C)NC(=O)N(C)C[C@@H]1OCCCC[C@@H](C)Oc2ccc(NC(=O)CCC(F)(F)F)cc2C(=O)N([C@@H](C)CO)C[C@@H]1C | 0.5
C[C@H]1CN([C@@H](C)CO)C(=O)c2cccc(NC(=O)NC3CCCCC3)c2O[C@@H]1CN(C)S(=O)(=O)c1cccs1 | 0.4
C[C@@H]1CN([C@H](C)CO)C(=O)c2cccc(NC(=O)c3cnccn3)c2O[C@H]1CN(C)S(=O)(=O)c1cn(C)cn1 | 2.7
CC(C)NC(=O)Nc1ccc2c(c1)C(=O)N([C@@H](C)CO)C[C@@H](C)[C@@H](CN(C)C(=O)c1ccncc1)OCCCC[C@@H](C)O2 | 2.5
C[C@@H]1CN([C@@H](C)CO)C(=O)Cc2cc(NS(C)(=O)=O)ccc2O[C@H]1CN(C)CC1CC1 | 1.7
CNC[C@H]1Oc2c(NS(=O)(=O)c3cccs3)cccc2C(=O)N([C@@H](C)CO)C[C@@H]1C | 4.8
CC(C)NC(=O)N(C)C[C@H]1OCCCC[C@H](C)Oc2ccc(NC(=O)Nc3ccccc3)cc2C(=O)N([C@H](C)CO)C[C@@H]1C | 2.0
C[C@H]1CN([C@@H](C)CO)C(=O)CCCn2cc(nn2)CO[C@H]1CN(C)C(=O)Nc1ccccc1C(F)(F)F | -0.4
C[C@H]1CN([C@@H](C)CO)C(=O)c2cc(NC(=O)CCN3CCOCC3)ccc2O[C@@H]1CN(C)C(=O)Nc1ccccc1 | 0.0
CC(C)NC(=O)Nc1ccc2c(c1)C(=O)N([C@H](C)CO)C[C@@H](C)[C@@H](CN(C)S(=O)(=O)c1ccccc1)OCCCC[C@@H](C)O2 | -0.6
COc1ccc(NC(=O)Nc2cccc3c2O[C@@H](CN(C)Cc2ccncc2)[C@H](C)CN([C@@H](C)CO)C3=O)cc1 | 1.5
C[C@@H]1CN([C@@H](C)CO)C(=O)c2cc(NC(=O)C3CCCCC3)ccc2O[C@@H](C)CCCCO[C@H]1CN(C)Cc1ccc(C(=O)O)cc1 | -0.6
C[C@H]1CN([C@@H](C)CO)C(=O)c2cccc(NS(=O)(=O)c3cccs3)c2O[C@H]1CN(C)Cc1ccc(Cl)c(Cl)c1 | -0.7

Later entries:
SMILES | Ran FRET
C[C@H]1CN([C@@H](C)CO)C(=O)c2cccc(NC(=O)C3CCOCC3)c2O[C@H]1CN(C)S(=O)(=O)c1cccs1 | -0.1
C[C@@H]1CN([C@H](C)CO)C(=O)c2cccc(NC(=O)c3ccc(-c4nccs4)cc3)c2O[C@H]1CN(C)C(=O)NC1CCCCC1 | -4.2
CC(C)NC(=O)Nc1ccc2c(c1)C(=O)N([C@@H](C)CO)C[C@H](C)[C@H](CN(C)C(=O)Nc1ccc(F)cc1)OCCCC[C@@H](C)O2 | -4.6
C[C@H]1CN([C@@H](C)CO)C(=O)c2cccc(NC(=O)Nc3ccc(F)cc3)c2O[C@@H]1CN(C)Cc1ccc(C(=O)O)cc1 | u
C[C@@H]1CN([C@@H](C)CO)C(=O)c2cccc(NS(C)(=O)=O)c2O[C@@H]1CN(C)S(=O)(=O)c1ccc(Cl)cc1 | -3.6
Cc1noc(C)c1S(=O)(=O)Nc1cccc2c1O[C@H](CN(C)Cc1ccncc1)[C@H](C)CN([C@H](C)CO)C2=O | 1.4
C[C@@H]1CN([C@H](C)CO)C(=O)Cc2cc(NC(=O)CCC(F)(F)F)ccc2O[C@H]1CN(C)Cc1ccc2c(c1)OCO2 | 2.6
C[C@@H]1CN([C@@H](C)CO)C(=O)c2cccc(NC(=O)c3cnccn3)c2O[C@H]1CN(C)Cc1ccc(C(F)(F)F)cc1 | -0.5
CNC[C@@H]1Oc2ccc(NC(=O)CCC(F)(F)F)cc2CC(=O)N([C@@H](C)CO)C[C@@H]1C | 4.9
C[C@@H]1CN([C@H](C)CO)C(=O)c2cc(NS(C)(=O)=O)ccc2O[C@H]1CN(C)C(=O)Nc1ccccc1 | 1.6
C[C@@H]1CN([C@H](C)CO)C(=O)c2cc(NC(=O)c3ccncc3)ccc2O[C@@H](C)CCCCO[C@H]1CN(C)Cc1ccc(C(=O)O)cc1 | -0.6
CNC[C@@H]1Oc2c(NC(=O)NC3CCCCC3)cccc2C(=O)N([C@H](C)CO)C[C@H]1C | 8.6
COc1ccc(S(=O)(=O)N(C)C[C@@H]2Oc3ccc(NC(=O)CCCN(C)C)cc3C(=O)N([C@@H](C)CO)C[C@@H]2C)cc1 | 0.1
C[C@@H]1CN([C@H](C)CO)C(=O)c2cc(NS(C)(=O)=O)ccc2O[C@@H](C)CCCCO[C@@H]1CN(C)C(=O)Cc1ccccc1 | 2.3
C[C@H]1CN([C@@H](C)CO)C(=O)Cc2cc(NC(=O)Nc3ccc(C(F)(F)F)cc3)ccc2O[C@@H]1CN(C)CC1CC1 | 4.9

5 structures out of the list, arranged by SMILES length, low to high.
SMILES | Ran FRET
CNC[C@@H]1Oc2ccc(NC(=O)CCC(F)(F)F)cc2CC(=O)N([C@@H](C)CO)C[C@@H]1C | 4.9
C[C@@H]1CN([C@H](C)CO)C(=O)c2cc(NS(C)(=O)=O)ccc2O[C@H]1CN(C)C(=O)Nc1ccccc1 | 1.6
C[C@H]1CN([C@@H](C)CO)C(=O)c2cccc(NC(=O)C3CCOCC3)c2O[C@H]1CN(C)S(=O)(=O)c1cccs1 | -0.1
C[C@@H]1CN([C@H](C)CO)C(=O)c2cccc(NC(=O)c3ccc(-c4nccs4)cc3)c2O[C@H]1CN(C)C(=O)NC1CCCCC1 | -4.2
C[C@@H]1CN([C@H](C)CO)C(=O)c2cc(NS(C)(=O)=O)ccc2O[C@@H](C)CCCCO[C@@H]1CN(C)C(=O)Cc1ccccc1 | 2.3

Remaining list, next part.
SMILES | Ran FRET
COc1ccc(CN(C)C[C@H]2Oc3ccc(NS(=O)(=O)c4ccc(Cl)cc4)cc3CC(=O)N([C@H](C)CO)C[C@@H]2C)cc1 | 3.1
C[C@H]1CCCCO[C@@H](CN(C)C(=O)Cc2ccccc2)[C@@H](C)CN([C@@H](C)CO)C(=O)c2cc(NS(C)(=O)=O)ccc2O1 | 3.8
C[C@@H]1CN([C@@H](C)CO)C(=O)CCCn2cc(nn2)CO[C@H]1CN(C)C(=O)Cc1ccccc1 | -6.6
COc1ccc(CN(C)C[C@H]2Oc3ccc(NC(=O)Cc4ccccc4)cc3C(=O)N([C@@H](C)CO)C[C@H]2C)cc1 | -3.3
COc1ccc(S(=O)(=O)N(C)C[C@@H]2Oc3c(NS(=O)(=O)c4c(C)noc4C)cccc3C(=O)N([C@H](C)CO)C[C@@H]2C)cc1 | -0.7
C[C@H](CO)N1C[C@H](C)[C@H](CN(C)Cc2ccc3c(c2)OCO3)Oc2ccc(NC(=O)NC3CCCCC3)cc2CC1=O | 2.9
C[C@@H]1CN([C@H](C)CO)C(=O)c2cc(NS(C)(=O)=O)ccc2O[C@@H](C)CCCCO[C@H]1CN(C)C(=O)Nc1ccc(C(F)(F)F)cc1 | -4.4
C[C@H]1CN([C@@H](C)CO)C(=O)CCCn2cc(nn2)CO[C@H]1CN(C)C(=O)Nc1cccc(Oc2ccccn2)c1 | 1.9
C[C@@H]1CCCCO[C@H](CN(C)Cc2ccccc2)[C@H](C)CN([C@H](C)CO)C(=O)c2cc(NC(=O)Nc3ccc4c(c3)OCO4)ccc2O1 | -2.2
C[C@@H]1CN([C@@H](C)CO)C(=O)c2cccc(NC(=O)NC3CCCCC3)c2O[C@@H]1CN(C)C(=O)Nc1ccc(C(F)(F)F)cc1 | 5.9
C[C@H]1CN([C@@H](C)CO)C(=O)CCCn2cc(nn2)CO[C@@H]1CN(C)S(=O)(=O)c1ccc(Oc2ccccc2)cc1 | -1.3
C[C@H](CO)N1C[C@H](C)[C@H](CN(C)Cc2ccncc2)Oc2ccc(NC(=O)CCN3CCOCC3)cc2CC1=O | 0.4
C[C@@H]1CCCCO[C@H](CN(C)C)[C@@H](C)CN([C@H](C)CO)C(=O)c2cc(NC(=O)CCCN(C)C)ccc2O1 | 5.0

The list is partial (hit frequency here may not be typical).
